# VACV Venus inh = inhibitors of vaccinia virus (Venus reporter). Vaccinia virus Venus reporter expression, fluorescence. Potency, µM (series often up to 36.5 µM), for the others: top-dose activity change, negative = inhibition, actives largely listed as inhibitors. hit rate 0.46% among 330,000; active means well fitted inhibition curve with a large enough effect; inconclusive means small, poorly fitted or top-dose-only effect; inactive means no such curve, though single readings can be large or run the other way; tested in A549 cells; further: nearly all actives have a fitted effect of over 30% in size; inactives centre near -10
# Vaccinia mCherry = vaccinia inhibition (mCherry reporter) | Vaccinia virus mCherry reporter infection, fluorescence; about a quarter of the inactives have no number | Potency, µM (highest dose often 36.5 µM), for the others: at the highest dose activity change, negative = inhibition, most hits filed as inhibitors | hit rate 0.63% among 310,000; active = well fitted inhibition curve with a large enough effect; inconclusive = small, poorly fitted or top-dose-only effect; inactive = no such curve, though single readings can be large or run the other way; tested in A549 cells; further: nearly all actives have a fitted effect of over 35% in size; inactives centre near -10
# The depositor's hits bear a star; i = inactive; u = inconclusive; x = no result given; & = joins results of further samples; [ ] = dose if it differs, or a comment. On the % scale 0 is the no-effect control and ±100 the full control effect; potency means the concentration at half of the fitted maximal effect.
SMILES,VACV Venus inh,Vaccinia mCherry
CCN(CC)c1cc(NC2CCCCC2)c2c3c(onc13)-c1ccccc1C2=O,154%[activator],4%
Cn1nc(C(=O)N2CCN(c3ccccc3)CC2)c2c1-c1ccccc1S(=O)(=O)C2,-11%,-15%
CCCCCn1c(=O)[nH]c2cc(C(=O)N3CCN(c4cccc(Cl)c4)CC3)ccc2c1=O,-10%,-10%
CCc1nc(SCC(N)=O)c2c(=O)n(C)c(=O)n(C)c2n1,5%,2%
COc1ccccc1Cc1nc2ccccc2nc1SCC(=O)Nc1cc(Cl)ccc1OC,-5%,-9%
CCN(CC)CCN1C(=O)C(O)=C(C(=O)c2cccs2)C1c1ccccn1 (configuration not stated),-6%,-11%
COc1cc(OC)nc(NC(=O)C(C)C)n1,-2%,i
Cc1ccc(OCC(O)Cn2c(=N)n(Cc3ccccc3)c3ccccc32)cc1 (configuration not stated),14µM*,11µM*
O=C(NC1CC(=O)N(c2ccccc2)C1)c1ccco1 (configuration not stated),-8%[7.34 µM],-1%[7.34 µM]
CC(C)(O)[C@@H]1CC[C@@](C)(C2CC[C@]3(C)C2[C@H](O)CC2[C@@]4(C)CC[C@H](O)C(C)(C)C4[C@@H](O[C@H]4O[C@@H](CO)[C@H](O)[C@@H](O)[C@@H]4O[C@@H]4O[C@H](CO)[C@@H](O)[C@H](O)[C@H]4O)C[C@]23C)O1 (stereo in doubt),3%,i
COC(=O)C1=C(CS(=O)(=O)c2ccc(C)cc2C)NC(=O)NC1c1ccc(C)cc1 (configuration not stated),-1%,-14%
CC1CCN(CCCN2C(=O)C3C(C(=O)Nc4cccc(Cl)c4)C4C=CC3(O4)C2C(=O)NC2CCCCC2)CC1 (configuration not stated),-9%,u
Cc1ccnc(NC(=O)c2ccc(OCC3CCCO3)cc2)c1 (configuration not stated),-10%,-12%
NC(Cc1ccc(Cl)cc1)c1csc(Nc2ccc(S(N)(=O)=O)cc2)n1 (configuration not stated),-24%,5%
CC(C)(C)N(NC(=O)c1ccccc1)C(=O)c1cccc(C(=O)N(NC(=O)c2ccccc2)C(C)(C)C)c1,-6%,x
COc1cccc(NC(=O)c2nc(SC)ncc2Cl)c1,-7%,-9%
O=C(CSc1nc2ccsc2c(=O)n1NC(=O)c1ccccc1)NCc1ccco1,-12%,i
Cc1cccc(OCCCSc2nc3ccc(C)cc3[nH]2)c1,-14%,-17%
COC(=O)c1ccccc1COn1c(=O)c(C)[n+]([O-])c2ccccc21,-14%,i
Cc1ccc(-c2[nH][nH]c(=O)c(=O)c2N=Nc2ccccc2)cc1,-1%,-16%
CCN1CCN(C(=O)CN(CCc2ccccc2)S(C)(=O)=O)CC1,-18%,-5%
COc1ccc(-c2nc3c4ccccc4ccn3c2Cc2cccc(Cl)c2)cc1OC,-2%,3%
CC(=NCc1cccnc1)c1c(O)n(-c2ccccc2C)c(=O)[nH]c1=O,-4%,i
C=CCn1c(=O)c2ccccc2n2c(SCC(C)=O)nnc12,-9%,-11%
O=C(CO/N=C/c1c(Cl)cccc1Cl)NNC(=O)c1ccc(Cl)cc1,-16%[7.34 µM],-16%[7.34 µM]
Cc1cc(NC(=O)C(C)(C)C)no1,-29%,x
O=C1COc2ccc(-c3n[nH]c(=O)c4ccccc34)cc2N1,-15%,i
Cc1ccc(N(Cc2cc(=O)[nH]c3ccccc23)C(=O)CCl)cc1,u,u
CN1C(=O)CSc2ccc(NC(=O)N3CCN(c4ccccc4)CC3)cc21,1%,i
CCn1cc(C(=O)OCC(=O)Nc2ccc(C(C)C)cc2)c(=O)c2ccc(C)nc21,-13%,i
CCC(C)CCN1C(N(C)C)=NC[C@@H]1C (some centres not stated),-10%,i
Oc1ccc(/C=N/NC2=NCCCCC2)cc1,0%,i
O=C(C[C@H]1CC[C@H]2[C@@H](COC[C@H](O)CN2Cc2ccccc2)O1)NCCCN1CCOCC1,-12%,-12%
CCOC(=O)C1CCN(S(=O)(=O)c2ccc3c(c2)NC(=O)C(C)C(=O)N3)CC1 (configuration not stated),-3%&-7%,-19%
CN(C)CC(C)(O)c1ccc2c(c1)CN(Cc1cccn1-c1cccnc1)CCO2 (configuration not stated),-7%,-15%
S=c1[nH]nc(-c2ccncc2)n1/N=C/c1cn(-c2ccccc2)nc1-c1ccc(Cl)cc1,-11%,-7%
C=CCCC(=O)Nc1nc(C)c(-c2csc(Nc3ccc(Cl)cc3Cl)n2)s1,u,u
Cc1c(Cl)cccc1NC(=O)c1ncn(-c2ccccc2)n1,-9%,-16%
O=C(/C=C/c1ccccc1)N/C(=C/c1ccccc1)C(=O)N1CCCCC1,-13%,-15%
O=[N+]([O-])c1c(Nc2ccccc2)ccc2nonc12,-9%,i
Cc1ccsc1/C=C1\SC(N)=NC1=O,-11%,-14%
COc1ccc(OC)c(NC(=O)C2CCCN(S(=O)(=O)c3ccc4[nH]c(=O)ccc4c3)C2)c1 (configuration not stated),0%,-6%
COC(=O)c1sc(S(=O)(=O)NCCC(=O)O)c(C(=O)OC)c1C,2%,i
C/C(=N\NC(=O)c1cccc(S(=O)(=O)N2CCCC2)c1)c1ccco1,-5%,9%
COc1ccc(CCN)cc1OC,-3%,3%
CC(C)NC(=S)NC(=O)c1ccc(Cl)cc1Cl,-3%,i
CC(=O)c1cc(CN2CCC(C(=O)Nc3ccc(-n4nc(C)cc4C)cc3)CC2)cs1,-19%,-26%
Cc1nc(N)sc1Cc1ccc2c(c1)OCO2,-5%,x
O=C(COC(=O)/C=C/c1ccc(Br)o1)NCCCN1CCCC1=O,-11%,-4%
O=S(=O)(Cc1noc(-c2ccc(Cl)cc2)n1)Cc1ccco1,13%,-11%
CCOP(=O)(OCC)C(O)c1ccc(OC)cc1 (configuration not stated),0%,-4%
COCCN1C(=O)c2oc3ccccc3c(=O)c2C1c1ccc(OC)c(OC)c1 (configuration not stated),3%,-1%
CCc1ccccc1NC(=S)N(Cc1cccc(C)c1)c1cccnc1,1%,-10%
Cc1ccc(CSCC(=O)N(C)CC(=O)Nc2ccccc2C(F)(F)F)cc1,-19%,-20%
O=C1c2ccccc2C(c2nnnn2-c2ccc3c(c2)OCCO3)N1CCOc1ccccc1 (configuration not stated),0%,19%
COc1cc2c(=O)n(CC3CCCO3)c(=O)n(CC(=O)Nc3cccc(Cl)c3)c2cc1OC (configuration not stated),u,x
C/C=C/c1cccc(-c2nc(C(=O)NC3CCC3)cc3c2[C@@H](CCO)N(S(=O)C(C)(C)C)C3)c1 (some centres not stated),11%,13%
CCCCCCCCCCCC[n+]1ccc(C)c2ccccc21,-9%,-11%
O=C(CN(CCO)c1ccccc1)Nc1cccc(S(=O)(=O)N2CCCC2)c1,1%,-20%
CN1CCN(c2ccc([N+](=O)[O-])c(NCc3ccco3)c2)CC1,-13%,i
# (next part)
SMILES,VACV Venus inh,Vaccinia mCherry
OC(COc1ccc2ccccc2c1)CN1CCCC1 (configuration not stated),-13%,-4%
CC(=O)C1=CCC(c2ccc(C)cc2)N(S(=O)(=O)c2ccc(Cl)cc2)C1 (configuration not stated),-6%,6%
O=C1C(Nc2ccccc2)=C(N2CCCCC2)C(=O)c2ccccc21,u,15%[1.46 µM]
C=CCN(C(=O)c1cccc(N2C(=O)C3CC=CC(C)C3C2=O)c1)c1ccccc1 (configuration not stated),-9%,-6%
CCN(CC)C(=O)C1=C(C)N(Cc2ccccc2)C(=O)C(CC(=O)NCc2cccs2)C1 (configuration not stated),-14%,-17%
CN1CCN(C(=O)/C(=C\c2cccs2)NC(=O)c2cccs2)CC1,-4%,-7%
COc1ccc(Cl)cc1NC(=O)CNc1ccccc1CN(C)C1CCCCC1,-14%,-21%
O=C(CSCc1c(F)cccc1Cl)Nc1cccnc1,0%,5%
COc1cc(/C=C2/C(=N)N3N=C(C(C)C)SC3=NC2=O)ccc1OS(=O)(=O)c1ccccc1,-2%,-6%
COc1cc(C(=O)Nc2cccnc2)cc(OC)c1OC,-11%,-16%
Cc1cc(/C=C(\C#N)C(=O)N2CCCCC2)cc(C)c1O,-20%,u
COc1cc(NC(=O)CN2C(=O)C(C)N(c3ccc(C)cc3)C2=O)cc(OC)c1 (configuration not stated),-23%,-9%
CCCCNC(=O)CN1C(=O)NC2NC(=O)NC21 (configuration not stated),-6%,-7%
CCCCNC(=O)[C@@H]1CC=C[C@@H]2CCN(Cc3ccc(Cl)c(Cl)c3)C(=O)[C@@H]21,u,-7%&-3%
O=C(CN1C(=O)CC(c2ccccc2)Sc2ccccc21)Nc1cccc(Cl)c1 (configuration not stated),-14%,-23%
CN=c1scc(-c2ccccc2F)n1/N=C/c1ccc[nH]1,1%,-26%
CCc1ccc(NC(=O)c2cnn(-c3c(C)cccc3C)c2C2CCNCC2)cc1,-16%,-14%
CCN1C(=O)c2ccccc2S(=O)c2ccc(C(=O)N3CCN(C(=O)c4ccco4)CC3)cc21 (configuration not stated),1%,i
COc1ccc(/C(C)=N/NC(=O)CNC(=O)c2ccco2)cc1,-5%,-19%
Cc1nc(N2CCOCC2)sc1C(=O)NN,-17%,-22%
COc1cccc(CN(C)C(=O)C2CC(=O)N(c3ccc4c(c3)OCCO4)C2)c1 (configuration not stated),-8%,-16%
COC(=O)c1ccc(NC(=O)Cc2ccccc2)cc1,-1%,-12%
COc1ccc(NC(=O)CCN2CCCCCC2)cc1,-23%,i
Cc1ccc(-n2nc(C(=O)N3CCCCC3)c(=O)n(C)c2=O)cc1,-7%,-4%
Cc1c(C)c2ccc(OCC(=O)N3CCC[C@@H]3C(=O)O)c(C)c2oc1=O,-1%,i
O=C(c1ccc2nc[nH]c2c1)N1CCc2ccccc2C1,-1%,5%
O=C(OC(C(=O)NCc1cccs1)c1ccccc1F)c1ccco1 (configuration not stated),-10%,-9%
CCOc1ccc(C(=O)OC2CCN(C)CC2)cc1,-5%,-18%
COc1ccc(C(=O)C2CCCN(Cc3ccc4nonc4c3)C2)c(OC)c1 (configuration not stated),-7%,u
Cc1cc2c(SCC(=O)Nc3cccc(O)c3)ncnc2s1,4%,i
CC(OC(=O)c1ccc(NS(=O)(=O)c2ccc3[nH]c(=O)[nH]c3c2)cc1)C(=O)Nc1ccc(Cl)cc1 (configuration not stated),-10%,-3%
COc1cc(OC)c(OC)cc1/C=N/Nc1ncnc2c1[nH]c1ccccc12,-6%,i
Cc1cc(C(=O)CSc2nnc(-c3ccco3)o2)c(C)n1-c1ccc2c(c1)OCCO2,-18%,x
CCOc1ccc(N2CC(C(=O)Nc3ccc(F)cc3F)CC2=O)cc1 (configuration not stated),-2%,-6%
COc1ccc(NC(=O)Nc2ccc3c(c2)C(=O)N([C@H](C)CO)C[C@H](C)[C@H](CN(C)Cc2ccc(C(=O)O)cc2)OCCCC[C@@H](C)O3)cc1,-14%,-8%
O=C(NCc1ccco1)C12CN(Cc3ccccc3)CC1C(c1ccc([N+](=O)[O-])cc1)=NO2 (configuration not stated),-9%,u
Cc1csc(=O)n1CC(=O)OCc1nnc(-c2ccc(Cl)cc2)o1,-13%,-12%
CCOC(=O)c1ccccc1NC(=O)c1ccccc1NS(C)(=O)=O,-12%,x
Cc1cccc2cc(CN(Cc3ccco3)C(=O)c3ccco3)c(=O)[nH]c12,-5%,-9%

# Shown tab-delimited: part of the list above
Compound	VACV Venus inh	Vaccinia mCherry
Cc1nc(N2CCOCC2)sc1C(=O)NN	-17%	-22%
COc1cccc(CN(C)C(=O)C2CC(=O)N(c3ccc4c(c3)OCCO4)C2)c1 (configuration not stated)	-8%	-16%
COC(=O)c1ccc(NC(=O)Cc2ccccc2)cc1	-1%	-12%
COc1ccc(NC(=O)CCN2CCCCCC2)cc1	-23%	i
Cc1ccc(-n2nc(C(=O)N3CCCCC3)c(=O)n(C)c2=O)cc1	-7%	-4%
Cc1c(C)c2ccc(OCC(=O)N3CCC[C@@H]3C(=O)O)c(C)c2oc1=O	-1%	i
O=C(c1ccc2nc[nH]c2c1)N1CCc2ccccc2C1	-1%	5%
O=C(OC(C(=O)NCc1cccs1)c1ccccc1F)c1ccco1 (configuration not stated)	-10%	-9%
CCOc1ccc(C(=O)OC2CCN(C)CC2)cc1	-5%	-18%
COc1ccc(C(=O)C2CCCN(Cc3ccc4nonc4c3)C2)c(OC)c1 (configuration not stated)	-7%	u
Cc1cc2c(SCC(=O)Nc3cccc(O)c3)ncnc2s1	4%	i
CC(OC(=O)c1ccc(NS(=O)(=O)c2ccc3[nH]c(=O)[nH]c3c2)cc1)C(=O)Nc1ccc(Cl)cc1 (configuration not stated)	-10%	-3%
COc1cc(OC)c(OC)cc1/C=N/Nc1ncnc2c1[nH]c1ccccc12	-6%	i
Cc1cc(C(=O)CSc2nnc(-c3ccco3)o2)c(C)n1-c1ccc2c(c1)OCCO2	-18%	x
CCOc1ccc(N2CC(C(=O)Nc3ccc(F)cc3F)CC2=O)cc1 (configuration not stated)	-2%	-6%
COc1ccc(NC(=O)Nc2ccc3c(c2)C(=O)N([C@H](C)CO)C[C@H](C)[C@H](CN(C)Cc2ccc(C(=O)O)cc2)OCCCC[C@@H](C)O3)cc1	-14%	-8%
O=C(NCc1ccco1)C12CN(Cc3ccccc3)CC1C(c1ccc([N+](=O)[O-])cc1)=NO2 (configuration not stated)	-9%	u

# Bioassay records: PubChem BioAssay, National Center for Advancing Translational Sciences (NCATS)
